Bioassay records as filed in PubChem.
SW480 rereplic – inducers of DNA re-replication in SW480 colon cancer cells. actives 1.8% (n = 340,000). SW480 DNA re-replication, Hoechst DNA content imaging, 48 h. Potency, µM (doses to about 46.1 µM), without a hit: top-dose re-replication activation, most hits filed as activators; also: potency is read from the fitted curve at half-maximal effect; % of control where 0% means no effect; nearly all actives have a fitted effect of over 55% in size
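Cells (250 per well) received 23 nL compound or DMSO by pin tool and were kept 48 hr at 37 C, 5% CO2. Nuclei were then stained with Hoechst for 40 min and scanned for DNA content.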
KB-V1 MDR tox – KB-V1 MDR subline cytotoxicity; KB-V1 MDR cells viability, CellTiter-Glo, 72 h; Potency, µM (titrated, usually from 46.1 µM), for the others: at the highest dose activity change, negative = cytotoxicity, actives largely listed as cytotoxic; AID 1347076; actives 3.4% (n = 400,000); also: potency is read from the fitted curve at half-maximal effect; % is scaled to controls: 0 for no effect and ±100 for the full control effect; nearly all actives have a fitted effect of over 60% in size
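KB-V1 MDR subline cells in DMEM (phenol-red free, 10% FBS) exposed to compounds in qHTS concentration series for 72 h at 37 degrees C. Viability read by CellTiter-Glo luminescence; concentration-effect curves fitted after normalization and correction.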
GLP-1R agonist – GLP-1 receptor (human) agonism; AID 624172; actives 0.007% (n = 380,000); P43220; Potency, µM (highest dose often 45.6 µM), inactives show at the top dose activation, actives largely listed as activators; HEK293 GLP-1R CRE-luciferase, luminescence, 4-6 h; cells express a hypersensitive GLP-1R form; also: potency is read from the fitted curve at half-maximal effect; % of control where 0% means no effect
Target sequence (P43220 whole entry, looked up): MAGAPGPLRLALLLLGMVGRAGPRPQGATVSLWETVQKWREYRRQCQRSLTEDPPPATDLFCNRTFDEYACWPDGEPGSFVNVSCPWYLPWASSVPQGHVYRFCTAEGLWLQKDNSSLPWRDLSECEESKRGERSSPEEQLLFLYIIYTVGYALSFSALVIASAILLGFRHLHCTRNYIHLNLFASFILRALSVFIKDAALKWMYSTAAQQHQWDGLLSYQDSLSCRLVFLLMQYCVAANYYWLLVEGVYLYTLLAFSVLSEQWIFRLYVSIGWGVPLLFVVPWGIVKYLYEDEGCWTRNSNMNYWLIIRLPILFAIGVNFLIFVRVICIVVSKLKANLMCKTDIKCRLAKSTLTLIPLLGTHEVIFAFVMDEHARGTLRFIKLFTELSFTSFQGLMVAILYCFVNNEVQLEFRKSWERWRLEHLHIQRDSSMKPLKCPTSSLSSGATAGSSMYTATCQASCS
IL1B secr inh – blocks inflammasome-driven IL-1 beta release | THP-1 LPS/ATP IL-1B secretion, AlphaLISA, 16 h; stronger effect = lower value | activity change, % at 57.5 µM | actives 4.7% (n = 360,000) | AID 743279; in the data active = activity change below about -50%; inconclusive = mostly about -30% to -49%; also: % is scaled to controls: 0 for no effect and ±100 for the full control effect
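Secreted IL-1B measured by AlphaLISA bead assay after 16 h compound exposure of THP-1 cells; compounds (final up to 57.5 uM) added 1 h before LPS (250 ng/mL) and ATP (1.25 mM) stimulation; lower signal means less secretion.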
KB-3-1 tox – KB-3-1 parental cell cytotoxicity; KB-3-1 viability, CellTiter-Glo ATP luminescence, 72 h; Potency, µM (top dose mostly 46.1 µM), for inactives: at the top dose activity change, negative = cytotoxic, hits mostly cytotoxic; actives 1.4% (n = 400,000); AID 1347075; also: potency is read from the fitted curve at half-maximal effect; % is scaled to controls: 0 for no effect and ±100 for the full control effect; nearly all actives have a fitted effect of over 60% in size
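KB-3-1 parental drug-naive adenocarcinoma cells in DMEM/10% FBS, incubated 72 h at 37 C with pin-transferred compounds across a concentration series. Viability by CellTiter-Glo luminescence; concentration-response curves fitted after normalization.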
Numbers without * were called inactive; u = inconclusive; x = not tested or not shown; & = joins results of further samples; ! = not confirmed by another sample; [ ] = another dose, or the depositor's remark. Unless noted, calls follow the shape of the dose curve; as a rule, active = well fitted curve in the direction sought with a large enough effect; inconclusive = small, poorly fitted or top-dose-only effect, or another doubt; inactive = no such curve, though single readings can be large; an effect the other way counts as inactive or inconclusive.

SMILES	SW480 rereplic	KB-V1 MDR tox	GLP-1R agonist	IL1B secr inh	KB-3-1 tox
Oc1c(Cl)cc(Cl)c(Cl)c1Cc1c(O)c(Cl)cc(Cl)c1Cl	16µM*!	5.2µM*	-4%&-4%	-25	u
O=S(=O)(O)NC1CCCCC1	-3%	x	2%	x	x
CC12CCC(=O)C=C1CCC1C2C(=O)CC2(C)C1CCC2(O)C(=O)CO (centres undefined)	-15%	-17%	6%	20	3%
CC12CCC(=O)C=C1CCC1C2C(=O)CC2(C)C1CC[C@]2(O)C(=O)CO (some centres undefined)	5%	-7%	-2%	-28	12%
CN[C@@H]1CC[C@H](c2ccc(Cl)c(Cl)c2)c2ccccc21	u	-4%	12%	x	13%
Nc1ccc(S(=O)(=O)Nc2ccccn2)cc1	-47%[inhibitor]	11%	6%	16	0%
NS(=O)(=O)c1cc(C(=O)O)c(NCc2ccco2)cc1Cl	-57%&-3%[inhibitor]	u	0%&-4%	12	0%
O[C@@](CCN1CCCC1)(c1ccccc1)C1CCCCC1	-5%[20.6 µM]	x	-1%[19.8 µM]	x	x
C[C@H](CCC(=O)O)[C@H]1CC[C@@H]2[C@H]3[C@@H](C[C@@H](O)[C@]21C)[C@]1(C)CC[C@H](O)C[C@@H]1C[C@@H]3O	12%	x	-6%	x	x
C[C@]12C=CC(=O)C=C1CC[C@@H]1[C@@H]2C(=O)C[C@@]2(C)[C@H]1CC[C@]2(O)C(=O)CO	5%&-69%&0%	4%&1%	-1%&6%&1%	-8&-14	0%&0%
CC12C=CC(=O)C=C1CCC1C2C(O)CC2(C)C1CCC2(O)C(=O)CO (centres undefined)	-21%	-4%	-4%	-60*	0%
CC12C=CC(=O)C=C1CCC1C2C(=O)C[C@@]2(C)C1CCC2(O)C(=O)CO (some centres undefined)	4%	-2%	-1%	-26	0%
CC(C)NC[C@H](O)COc1cccc2ccccc12	-39%[inhibitor]	-14%	-1%	-22	0%
CC(=O)C1CCC2C3CCC4CC(=O)CCC4(C)C3C=CC12C (centres undefined)	-3%	-2%	16%	11	0%
Nc1ccn([C@@H]2O[C@H](CO)[C@@H](O)[C@H]2O)c(=O)n1	-3%	0%	-2%	1	0%
CC(C)NC[C@@H](O)COc1cccc2ccccc12	u	-4%	-4%&5%	-15	0%

Three entries already listed, sorted by formula weight, lowest first.
SMILES	SW480 rereplic	KB-V1 MDR tox	GLP-1R agonist	IL1B secr inh	KB-3-1 tox
O=S(=O)(O)NC1CCCCC1	-3%	x	2%	x	x
C[C@]12C=CC(=O)C=C1CC[C@@H]1[C@@H]2C(=O)C[C@@]2(C)[C@H]1CC[C@]2(O)C(=O)CO	5%&-69%&0%	4%&1%	-1%&6%&1%	-8&-14	0%&0%
CC12CCC(=O)C=C1CCC1C2C(=O)CC2(C)C1CCC2(O)C(=O)CO (centres undefined)	-15%	-17%	6%	20	3%

Filtered by structure, the entries above with a COOH group
SMILES	SW480 rereplic	KB-V1 MDR tox	GLP-1R agonist	IL1B secr inh	KB-3-1 tox
NS(=O)(=O)c1cc(C(=O)O)c(NCc2ccco2)cc1Cl	-57%&-3%[inhibitor]	u	0%&-4%	12	0%
C[C@H](CCC(=O)O)[C@H]1CC[C@@H]2[C@H]3[C@@H](C[C@@H](O)[C@]21C)[C@]1(C)CC[C@H](O)C[C@@H]1C[C@@H]3O	12%	x	-6%	x	x

Entries of single compounds, looked up by structure. Order of screens: SW480 rereplic	KB-V1 MDR tox	GLP-1R agonist	IL1B secr inh	KB-3-1 tox
Record of Oc1c(Cl)cc(Cl)c(Cl)c1Cc1c(O)c(Cl)cc(Cl)c1Cl : 16µM*!	5.2µM*	-4%&-4%	-25	u
Record of Nc1ccc(S(=O)(=O)Nc2ccccn2)cc1 : -47%[inhibitor]	11%	6%	16	0%
Record of CC(C)NC[C@H](O)COc1cccc2ccccc12 : -39%[inhibitor]	-14%	-1%	-22	0%

Exported with each value named: entries from further up.
smiles: Nc1ccc(S(=O)(=O)Nc2ccccn2)cc1
  SW480 rereplic: -47%[inhibitor]
  KB-V1 MDR tox: 11%
  GLP-1R agonist: 6%
  IL1B secr inh: 16
  KB-3-1 tox: 0%
smiles: O=S(=O)(O)NC1CCCCC1
  SW480 rereplic: -3%
  KB-V1 MDR tox: x
  GLP-1R agonist: 2%
  IL1B secr inh: x
  KB-3-1 tox: x
smiles: O[C@@](CCN1CCCC1)(c1ccccc1)C1CCCCC1
  SW480 rereplic: -5%[20.6 µM]
  KB-V1 MDR tox: x
  GLP-1R agonist: -1%[19.8 µM]
  IL1B secr inh: x
  KB-3-1 tox: x

Some of the compounds tested; count on the stated rates, not on these rows.
